PV pol inh = inhibitors of poliovirus RNA polymerase binding and polymerization. P03300. poliovirus polymerase elongation, fluorescence polarization; stronger effect = lower value. % elongation, % (compound at 16.7 µg/mL). hit rate 0.66% among 150,000; in the data active means % elongation below about 90%; further: some results filed as inactive read as strong as hits
Target sequence (P03300 1749-2209 limits assumed): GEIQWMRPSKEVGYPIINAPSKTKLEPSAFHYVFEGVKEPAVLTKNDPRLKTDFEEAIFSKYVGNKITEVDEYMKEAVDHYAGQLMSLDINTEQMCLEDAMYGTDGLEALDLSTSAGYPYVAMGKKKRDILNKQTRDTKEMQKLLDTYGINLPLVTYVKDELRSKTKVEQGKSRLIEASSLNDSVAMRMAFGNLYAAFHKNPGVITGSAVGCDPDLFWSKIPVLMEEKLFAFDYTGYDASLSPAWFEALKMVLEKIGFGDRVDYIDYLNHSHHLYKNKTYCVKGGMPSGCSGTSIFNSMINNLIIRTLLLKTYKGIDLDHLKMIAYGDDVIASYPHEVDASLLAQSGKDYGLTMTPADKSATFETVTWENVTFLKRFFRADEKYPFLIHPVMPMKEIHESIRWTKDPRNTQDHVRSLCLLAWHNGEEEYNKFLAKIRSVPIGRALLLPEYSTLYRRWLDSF
MenB inh = blocks the Mycobacterium tuberculosis MenB enzyme; P9WNP5; MenB enzyme assay, absorbance read-out; some hits fall short of the stated cut; inhibition, %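 (about 12 µg/mL by stock and volumes)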; hit rate 0.43% among 100,000;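 active means mean of two replicates above 30%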;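 further: 0% = no compound and 100% = wells with inactive enzyme; the first replicate is given; strong numbers were not always called active; inactives centre near -10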
Mtb MbtI inh = inhibitors of Mycobacterium tuberculosis siderophore enzyme MbtI. P9WFX0. purified MbtI enzyme, fluorescence intensity read-out. inhibition, %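 (about 17 µg/mL by stock and volumes)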. hit rate 0.89% among 100,000;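 active means above 50% in both replicates, above 80% if mildly self-fluorescent; inactive means the rest, strongly fluorescent compounds included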;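 further: 0% = mean of negative and 100% = mean of positive controls; one replicate is shown; some compounds called inactive have numbers as strong as hits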
Target sequence (P9WFX0 whole entry, looked up): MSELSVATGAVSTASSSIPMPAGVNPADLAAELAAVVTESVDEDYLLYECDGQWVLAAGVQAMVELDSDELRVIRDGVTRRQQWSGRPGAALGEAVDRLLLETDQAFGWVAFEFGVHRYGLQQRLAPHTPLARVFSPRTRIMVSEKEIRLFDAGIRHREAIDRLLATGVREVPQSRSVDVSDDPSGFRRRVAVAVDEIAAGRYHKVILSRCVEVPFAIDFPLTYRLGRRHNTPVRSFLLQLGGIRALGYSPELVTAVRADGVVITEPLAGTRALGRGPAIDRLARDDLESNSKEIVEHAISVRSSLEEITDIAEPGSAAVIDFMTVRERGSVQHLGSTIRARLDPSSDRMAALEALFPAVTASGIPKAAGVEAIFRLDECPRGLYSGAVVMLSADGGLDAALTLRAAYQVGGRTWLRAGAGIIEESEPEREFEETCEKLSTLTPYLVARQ
PV pol inh intensity = also measured in PV pol inh; calls as there; % elongation; measured here: total intensity read-out; formula for this scale not given here;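 total fluorescence in place of polarization; lower means less elongation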
Numbers without * were called inactive; i = inactive; / = no result given. Rows are unselected; overall some 1.7% were active at least once.

SMILES | PV pol inh | PV pol inh intensity | MenB inh | Mtb MbtI inh
CC(C(=O)O)c1ccc(C(=O)c2ccccc2)s1 (configuration not stated) | 98 | 103 | 0 | 6
O=C(O)CCC(=O)N1CCN(Cc2ccc3c(c2)OCO3)CC1 | 102 | 103 | -25 | -6
Cc1cccc(NC(=S)N=Nc2c(O)n(CN3CCOCC3)c3ccccc23)c1C | 101 | 102 | -147 | -2
COc1ccccc1C1=NOC(C(=O)Nc2ccc(C)cc2)C1 (configuration not stated) | 102 | 103 | -4 | 13
O=C1CCCC(O)=C1C(C#Cc1ccccc1)C1=C(O)CCCC1=O | 100 | 104 | -32 | /
COC(=O)C(O)(c1c(C)nn(-c2ccccc2)c1N)C(F)(F)F (configuration not stated) | 100 | 102 | -5 | -22
O=C(Nc1c2c(nn1-c1ccccc1)CS(=O)C2)C12CC3CC(CC(C3)C1)C2 (configuration not stated) | 99 | 101 | -2 | 8
O=C(COC(=O)c1ccccc1Nc1ccccc1)c1ccccc1 | 103 | 102 | -44 | 6
CC(C)(C)NC(=O)c1ccccc1 | 100 | 101 | 19 | 17
Cc1nnc(NC(=O)c2cccc(Cl)c2)s1 | 102 | 103 | / | -2
Cc1ccc(-n2c(SC(C)C(=O)NC(N)=O)nc3ccccc32)cc1 (configuration not stated) | 103 | 107 | -12 | -6
Cc1ccn2cc(C(=O)N3CCCN(S(=O)(=O)c4ccc(F)cc4)CC3)nc2c1 | 97 | 96 | -19 | 15
FC(F)(F)c1ccc(NCn2nnc3ccccc32)cc1 | 102 | 99 | 18 | 19
Cc1cc(C(=O)COc2ccc(F)cc2)c(C)n1-c1ccccc1 | 103 | 104 | / | -3
CCSc1nnc(C2CCCN(CC(=O)NC3CCCCC3C)C2)n1CC (configuration not stated) | 102 | 103 | -25 | -8
O=C(C(Cc1ccccc1)NS(=O)(=O)c1ccc(F)cc1)N1CCC2(CC1)OCCO2 (configuration not stated) | 101 | 104 | -22 | 0
c1cc2c3c(cccc3c1)C(N1CCCCCC1)=N2 | 94 | 109 | -104 | 41
Cc1ccc(Cl)cc1N1CCN(CC(=O)Nc2ccc3[nH]c(=O)[nH]c3c2)CC1 | 104 | 101 | -2 | -10
Cc1nn(-c2ccccc2)nc1CNC(=O)c1ccc(N(C)C)cc1 | 103 | 114 | -17 | -14
CCOC(=O)c1c(-c2cccs2)csc1NC(=O)COC(=O)c1cc2c(s1)CCC2 | 102 | 99 | -10 | -41
O=C(COc1cccc2c1CCN(Cc1ccccc1)C2=O)Nc1ccc2c(c1)OCCO2 | 100 | 101 | 16 | 3
CCOc1ccc(NC(=O)c2cc3ccccc3o2)cc1OCC | 103 | 102 | -29 | 18
c1coc(CNCC2OCCc3ccccc32)c1 (configuration not stated) | 104 | 103 | -4 | -5
Cn1c(Nc2ccccc2)nc2ccccc21 | 104 | 102 | -2 | 5
CC(=N\O)/C(=N\O)c1cccs1 | 98 | 99 | -25 | 2
O=C(CSC1=NCCS1)Nc1ccccc1C(F)(F)F | 103 | 102 | -1 | 12
O=C1N(CCOc2ccccc2)c2ccccc2C12OCCCO2 | 103 | 103 | -24 | -4
CC1(C)CC2CC(C)(CN2C(=O)CSc2nnnn2-c2ccccc2)C1 (configuration not stated) | 100 | 96 | 6 | 3
Cc1c(CCC(=O)N2CCOCC2)c(=O)oc2c(C)c(O)ccc12 | 104 | 102 | 6 | -9
CCOC(=O)c1c(C)[nH]c(C)c1C(=O)CSc1cccc[n+]1[O-] | 100 | 104 | 4 | -2
O=c1c2sc(=S)n(Cc3ccco3)c2nc(SCc2ccccc2)n1-c1ccccc1 | 102 | 103 | -23 | 21
Cc1cccc(NC(=O)Cn2c(CNC(=O)c3ccccc3)nc3ccccc32)c1 | 102 | 98 | / | -1
CC(=O)Nc1c(N)c2ccccc2oc1=O | 105 | 100 | 14 | 16
CCn1c(O)c(N=NC(=O)c2ccc(C)nc2)c2ccccc21 | 102 | 102 | -9 | -2
O=C(Cc1csc(N2CCOCC2)n1)N/N=C/c1cccc(O)c1 | 104 | 115 | -10 | 3
O=C(N/N=C/C=C/c1ccccc1)c1cc(C2CC2)[nH]n1 | 103 | 102 | -20 | 8
S=C(NCc1ccccc1)NC1CC1 | 101 | 101 | -36 | -4
CC(C)N1C(=O)CC(Nc2cccc3cccc(N)c23)C1=O (configuration not stated) | 101 | 99 | 3 | 17
O=C(CCc1cn(Cc2ccc(F)cc2)c2ccccc12)NC1CCCc2ccccc21 (configuration not stated) | 105 | 106 | -26 | -9
CCC(=O)c1cc2cc(Cl)cc(Cl)c2oc1=O | 101 | 101 | -20 | -6
CC(C(=O)NCC1CCCCC1)N1CCN(S(=O)(=O)/C=C/c2ccccc2)CC1 (configuration not stated) | 105 | 105 | -1 | -5
CCOC(=O)c1oc2ccccc2c1CSc1nc2ccccc2c(=O)n1CC1CCCO1 (configuration not stated) | 109 | 107 | -26 | -6
O=C(Nc1c[nH]c2ccccc12)N1CCOCC1 | 104 | 109 | -1 | 2
CCOC(=O)C1=C(C(C)C)NC(=O)NC1c1ccc(F)cc1 (configuration not stated) | 103 | 105 | -126 | -16
Cc1csc2c(N3CCN(C(=S)NCC4CC4)CC3)ncnc12 | 101 | 104 | -14 | -6

Part of the list above in order of molar mass, lowest first:
SMILES | PV pol inh | PV pol inh intensity | MenB inh | Mtb MbtI inh
CC(C)(C)NC(=O)c1ccccc1 | 100 | 101 | 19 | 17
Cc1nnc(NC(=O)c2cccc(Cl)c2)s1 | 102 | 103 | / | -2
CC(C(=O)O)c1ccc(C(=O)c2ccccc2)s1 (configuration not stated) | 98 | 103 | 0 | 6
CCC(=O)c1cc2cc(Cl)cc(Cl)c2oc1=O | 101 | 101 | -20 | -6
O=C(N/N=C/C=C/c1ccccc1)c1cc(C2CC2)[nH]n1 | 103 | 102 | -20 | 8
CCOC(=O)C1=C(C(C)C)NC(=O)NC1c1ccc(F)cc1 (configuration not stated) | 103 | 105 | -126 | -16
CCOc1ccc(NC(=O)c2cc3ccccc3o2)cc1OCC | 103 | 102 | -29 | 18
COC(=O)C(O)(c1c(C)nn(-c2ccccc2)c1N)C(F)(F)F (configuration not stated) | 100 | 102 | -5 | -22
O=C1CCCC(O)=C1C(C#Cc1ccccc1)C1=C(O)CCCC1=O | 100 | 104 | -32 | /
O=C(Cc1csc(N2CCOCC2)n1)N/N=C/c1cccc(O)c1 | 104 | 115 | -10 | 3
Cc1csc2c(N3CCN(C(=S)NCC4CC4)CC3)ncnc12 | 101 | 104 | -14 | -6
Cc1ccc(-n2c(SC(C)C(=O)NC(N)=O)nc3ccccc32)cc1 (configuration not stated) | 103 | 107 | -12 | -6
Cc1ccc(Cl)cc1N1CCN(CC(=O)Nc2ccc3[nH]c(=O)[nH]c3c2)CC1 | 104 | 101 | -2 | -10
Cc1ccn2cc(C(=O)N3CCCN(S(=O)(=O)c4ccc(F)cc4)CC3)nc2c1 | 97 | 96 | -19 | 15
CCOC(=O)c1oc2ccccc2c1CSc1nc2ccccc2c(=O)n1CC1CCCO1 (configuration not stated) | 109 | 107 | -26 | -6

(continued)
SMILES | PV pol inh | PV pol inh intensity | MenB inh | Mtb MbtI inh
CCOC(=O)c1c(C)[nH]c(C)c1C(=O)COc1cc(C)nc(C(C)C)n1 | 107 | 100 | -26 | 1
CCC(C)NC(=O)c1cc(-c2ccccc2O)no1 (configuration not stated) | 103 | 100 | 5 | -8
O=C(COC(=O)c1n[nH]c(=O)c2ccccc12)NC1CCCCCC1 | 113 | 123 | -24 | -4
C/C(N)=C(/C#N)C(=O)CSc1nc2ccc(Br)cc2c(=O)n1Cc1ccco1 | 104 | 102 | -4 | 15
CC(Sc1ncn(-c2ccccc2)n1)C(=O)Nc1ccc(Cl)cc1 (configuration not stated) | 100 | 102 | -23 | 10
CCCCn1cnc2c1c(=O)n(CC(=O)Nc1ccc(CC)cc1)c(=O)n2CCC | 102 | 102 | -10 | 6
C/C(=N/NC(=O)CC1=NNC(=O)C1)c1ccc(Br)cc1 | 98 | 103 | -63 | 8
CCN1CCN(CCC(=O)Nc2ccc(C)cc2)CC1 | 100 | 102 | 37* | -1
CC1=C(C#N)C2C(/C1=N/O)C2(C)C (configuration not stated) | 97 | 105 | -16 | 3
COC(=O)c1ccc(COC(=O)c2cccc(C#N)c2)o1 | 106 | 99 | -26 | 2
CCC(CC)C(=O)N1c2ccccc2Sc2ccccc21 | 100 | 102 | -12 | -3
C/C(=C\C(=O)c1ccc(C)o1)Nc1ccc(Nc2ccccc2)cc1 | 104 | 99 | -67 | 6
O=C(/C=C/c1c(Cl)nc2sccn12)OCc1cc(=O)n2c3c(sc2n1)CCCC3 | 105 | 104 | -7 | -5
CC(Sc1nc2ccc(C(=O)c3ccccc3)cc2[nH]1)C(=O)O (configuration not stated) | 103 | 100 | -38 | 16
c1csc(-c2nc(NCCCN3CCOCC3)c3ccccc3n2)c1 | 96 | 98 | 1 | -159
COc1ccc2cc3cc(C(=O)NCc4ccccn4)oc3nc2c1 | 98 | 107 | -20 | 117
CCN1CCN(C(=O)c2ccccc2NS(C)(=O)=O)CC1 | 103 | 105 | -23 | -13
Cc1cc(C(=O)OCc2cc(Cl)cc3c2OCOC3)c(C)o1 | 107 | 107 | -22 | 2
O=C(CSc1nnc(SCc2ccc(Cl)cc2)s1)N1CCc2ccccc2C1 | 101 | 96 | -6 | -16
O=C(Nc1ccc2c(c1)OCO2)[C@H](Cc1ccccc1)N1Cc2ccccc2C1=O | 100 | 102 | -16 | 7
Cc1cccc(-c2noc(CNS(=O)(=O)c3ccccc3)n2)c1 | 103 | 106 | 0 | 1
Clc1ccc2[nH]c3nc4ccccc4nc3c2c1 | 100 | 104 | 2 | 1
CC1CCN(C(=O)c2ccc3c(Cl)c4c(nc3c2)CCCC4)CC1 | 102 | 104 | -5 | -3
Cc1cc(NCCN(C)C)n2nc(C)c(-c3ccccc3)c2n1 | 104 | 103 | -41 | 4
CCOC(=O)c1c(NC(=O)C(C)(C)C)sc2c1CCCC2 | 103 | 104 | / | -32
O=C(OCc1ccco1)c1ccc(-c2ccc(Cl)cc2)s1 | 112 | 109 | -19 | i
Cc1cccc(NC(=O)c2ccco2)n1 | 103 | 96 | 21 | 6
Cc1ccsc1C(=O)OCC(=O)Nc1ccccc1 | 99 | 97 | / | -5
CCN(CC)c1ccc(NC(=O)C2c3ccccc3Oc3ccccc32)cc1 | 104 | 107 | -22 | -5
Cc1ccc(NC(=O)c2ccco2)cc1F | 101 | 101 | -24 | /
CC1(C)CC(=O)c2c([nH]c(-c3ccccc3)c2-c2ccccc2)C1 | 103 | 91 | -20 | /
O=S(=O)(c1ccc(C2CCCCC2)cc1)N(CCCN1CCOCC1)Cc1cccs1 | 100 | 107 | -1 | -3
Cc1cc(=O)n2[nH]c(NCc3ccccc3)nc2n1 | 95 | 77 | -6 | 29
CCn1c(CCC(=O)Nc2ccc(N3CCOCC3)cc2)nc2cc(S(=O)(=O)N(C)C)ccc21 | / | / | -29 | -6
O=C1NN(c2ccccc2)C(=O)/C1=C\c1ccccc1 | 98 | 103 | 26 | 39
CC1(C)Cc2nc3sc4c(=O)n(CC(=O)c5ccc(Cl)cc5)cnc4c3cc2CO1 | 105 | 104 | 5 | -4
Cc1occc(=O)c1OC(=O)c1cccs1 | 101 | 95 | -4 | -3
COc1ccc2oc(=O)c(-c3nc(-c4ccc(Cl)cc4)cs3)cc2c1 | 102 | 106 | -12 | 2
CCCn1c(-c2ccc(F)cc2)n[nH]c1=O | 104 | 99 | 9 | 2
NCCc1cccs1 | 102 | 102 | 10 | 18
CCO/C=C1\SC(=S)N(/N=C/c2cccc(Cl)c2)C1=O | 140 | 204 | -57 | 23
O=C1CCC(c2ccccc2)c2cc(Oc3c(F)c(N4CCOCC4)nc(F)c3Cl)ccc21 (configuration not stated) | 103 | 104 | -11 | -16
CC(=O)Nc1nnc(SC(C)C(=O)Nc2ccc(S(N)(=O)=O)cc2)s1 (configuration not stated) | 100 | 103 | -53 | 4
O=C(CCNS(=O)(=O)c1ccc2nc(-c3ccccc3)[nH]c2c1)N1CCOCC1 | 101 | 98 | -15 | 39
CCc1noc(C)c1C(=O)N1CCCCCCC1 | 100 | 101 | -1 | 0
O=C(CCNC(=O)Nc1ccccc1)Nc1ccc(N2CCOCC2)cc1N1CCOCC1 | 100 | 107 | -8 | -8
COc1ccccc1/C=N/OCC(=O)NCc1ccc2c(c1)OCO2 | 104 | 105 | 1 | 33
CCOC(=O)C1CCCN(C(=O)C(C)(C)Oc2ccc(Cl)cc2)C1 (configuration not stated) | 103 | 102 | -55 | -6
Cc1ccc(N2C(=O)c3cccc4c(N5CCN(C)CC5)ccc(c34)C2=O)c2cccnc12 | 70 | 174 | -65 | -6
O=C1NC(=O)C2C1C(c1ccccc1)N1C3C(=O)NC(=O)C3C(c3ccccc3)N21 (configuration not stated) | 99 | 103 | 0 | -34
CCc1cc(=O)n2[nH]c(C)c(-c3ccccc3OC)c2n1 | 106 | 111 | -9 | /
CC1Nc2ccccc2C(=O)N1NC(=O)c1ccc(Br)cc1 (configuration not stated) | 108 | 113 | -2 | /
COC(=O)c1cc2c(ccn2-c2ccc(F)cc2)n1CC1CCCCC1 | 101 | 107 | -68 | 89
Nc1c(Cl)nc(-c2ccccc2)nc1Cl | 100 | 102 | -22 | -9
CCc1ccc(N2CN(Cc3ccccc3)CNC2=S)cc1 | 104 | 106 | -30 | 8
CCOC(=O)c1ccc(NC(=O)C2CC(=O)NC(Nc3nc4ccccc4s3)=N2)cc1 (configuration not stated) | 102 | 101 | -18 | -1
